Screens: PubChem, Southern Research Institute
Mtb H37Rv: Confirmatory growth inhibition assay against Mycobacterium tuberculosis H37Rv, potency (AID 1949). one-dose inhibition, % at 10 µg/mL; IC50 in µg/mL for titrated hits. 100,000 tested, 1.6% active. most inactive calls were filed without a number and no value below 0 was filed;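 active = confirmed in a dose series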;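 note: bacteria grown 7 days with compound before Alamar blue readout; 0% = untreated bacteria and 100% = reference antibiotic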
Active calls of the source: *; i = inactive. A portion of the library, so the mix of outcomes need not match the whole.

SMILES | Mtb H37Rv
O=C(c1ccco1)N1CCN(C(=S)Nc2ccc(Oc3ccccc3)cc2)CC1 | i
Cc1cccc(OCCCC(=O)Nc2ccccc2F)c1 | i
COc1ccc2c(c1)C(O)(CC(=O)c1ccc3ccccc3c1)C(=O)N2 (stereo not drawn) | i
CN(C)C(=O)Oc1ccc(NC(=O)N2CCOCC2)cc1 | i
Cc1ccc(-c2ccc(S(=O)(=O)N3CCN(c4ccccc4F)CC3)cc2)cc1 | 0%
CCc1cc(Br)cc(C)c1NC(=O)CSc1nnc(-c2ccncc2)n1-c1ccccc1 | i
O=C(NCc1ccccc1)c1cccc(NC(=O)c2cccs2)c1 | i
C=CCn1c(NCc2ccccc2OC)nc2ccccc21 | 1%
COc1ccc(S(=O)(=O)N(CC(=O)Nc2cc([N+](=O)[O-])ccc2OC)c2ccc(Cl)cc2)cc1 | i
O=C(c1cccs1)N1CCN(c2cnn(-c3ccccc3)c(=O)c2Cl)CC1 | i
CC1(C)CC2CC(C)(CN2C(=O)CN2C(=O)c3ccccc3C2=O)C1 (stereo not drawn) | i
CCOC(=O)NC(=S)N1CCN(c2ccccc2)CC1 | 0%
CCCC(=O)Nc1ccc(N2CCN(C(=O)c3cccs3)CC2)c(Cl)c1 | i
CCOC(=O)C1=CN(C)C=C(C(=O)OCC)C1c1ccc(C(C)C)cc1 | i
O=C(O)c1cccc(-n2c(-c3cnccn3)n[nH]c2=S)c1 | 3%
O=C(CC(c1ccccc1)c1cc(Cl)ccc1O)N1CCOCC1 (stereo not drawn) | i
CS(=O)(=O)N(CC(=O)Nc1ccc(Br)cc1F)c1ccc(Cl)c(Cl)c1 | 7%
CC1Cc2ccccc2N1C(=O)Nc1ccc(F)cc1 (stereo not drawn) | i
COc1ccc(NC(=O)CSc2nnc3ccc4ccccc4n23)cc1 | i
Cc1ccc(/C=C/C(=O)O)cc1S(=O)(=O)NCC1CCCO1 (stereo not drawn) | i
Cc1ccc(SC(C)C(=O)Nc2ccccc2C(F)(F)F)cc1 (stereo not drawn) | 2%
Cc1cccc(NC(=O)CCC(=O)Nc2cccc(C)c2)c1 | i
CC1(C)CC2CC(C)(CN2C(=O)c2ccc(F)cc2)C1 (stereo not drawn) | i
Cc1ccc(CNC(=O)c2oc3cc(C)c(C)cc3c2C)cc1 | 0%
CCOC(=O)C1CCCN(C(=O)CSCc2ccccc2)C1 (stereo not drawn) | i
CCOC(=O)C1=C(C)NC(=O)NC1c1ccc(OCC(N)=O)cc1 (stereo not drawn) | i
CCc1ccccc1NC(=O)CSc1nnnn1Cc1ccccc1 | i
O=C(O)CCC(=O)c1sc(Cl)c(Cl)c1Cl | i
COc1ccc(-c2ccc3c(N)c(C(=O)NC(C)C)sc3n2)cc1 | i
CCC(C)c1ccccc1NC(=O)Cc1ccccc1 (stereo not drawn) | 3%
Cc1nnc(SCC(=O)NCc2ccco2)s1 | i
Cc1c(C)c2cc3c(-c4ccc(F)cc4)coc3c(C)c2oc1=O | i
Cc1ccc(C(=O)Nc2nnc(C3CCCCC3)s2)o1 | i
Cc1nn2c3ccccc3n(C)c2c1C(=S)Nc1ccccc1 | i
N#CC1=C(SCC(=O)Nc2ccc(Cl)c(Cl)c2)NC(=O)CC1c1ccccc1 (stereo not drawn) | i
O=C(CCCNC(=O)OCc1ccccc1)Oc1ccc2c(c1)oc(=O)c1ccccc12 | i
COc1ccc(C)cc1S(=O)(=O)Nc1ccc(C(F)(F)F)cc1 | i
COc1ccc(N2CCN(C(=S)Nc3ccccc3OC(F)F)CC2)cc1 | i
Cc1ccc(SCC(=O)Nc2ccc(-c3nc4ccccc4[nH]3)cc2)cc1 | 3%
CCOC(=O)C(CC)NC(=O)c1ccccc1NC(=O)c1ccccc1 (stereo not drawn) | i
C=CCn1c(SCC(=O)Nc2ccc(OC)cc2)nc2sc3c(c2c1=O)CCC3 | i
CCOc1ccccc1NC(=O)c1c(NC(=O)c2ccccc2Br)sc2c1CCC(C)C2 (stereo not drawn) | i
O=C(COC(=O)c1cc(-c2ccccc2)nc2ccc(Cl)cc12)c1ccccc1 | i
O=C(NC1CCCCC1)c1cc2cc(Cl)cc(Cl)c2oc1=O | i
Cc1oc2cc3oc(=O)cc(-c4ccccc4)c3cc2c1-c1ccccc1 | i
CC1CCCCC1NC(=O)CSc1nnc(CNC(=O)c2ccccc2)n1C (stereo not drawn) | i
Cc1ccc(N2CCN(S(=O)(=O)N(C)C)CC2)cc1Cl | i
Cc1c(C#N)c2ccccc2n1CCOc1ccccc1F | i
CC1=C(C)CC(C(=O)Nc2cc(Cl)cc(Cl)c2)C(C(=O)O)C1 (stereo not drawn) | i
Cc1ccccc1Nc1nc(N)nc(CN2CCN(C)CC2)n1 | i
Cc1cnn(C(=O)c2cc3ccccc3oc2=O)c1 | i
CCn1c(-c2c[nH]c3ccccc23)n[nH]c1=S | i
COc1cccc(S(=O)(=O)N2CCN(c3ccccc3)CC2)c1 | i
CCOc1ccccc1C(=O)Nc1cccc(NC(=O)c2ccccc2OCC)c1 | i
O=C(Nc1ccc(S(=O)(=O)N2CCOCC2)cc1)c1ccc(CN2CCOCC2)cc1 | i
CCC(=O)NCCc1nc2ccccc2n1C | i
CC(C)C(NC(=O)CCc1ccccc1)C(C)C | i
CC(=O)c1c(OC(=O)c2ccccc2Cl)ccc2c(C)cc(=O)oc12 | i
CCc1cccc(CC)c1NC(=O)CSc1ccc(C)cc1 | i
CCCCC(=O)Nc1ccc(C(=O)O)cc1NC(=O)CCCC | i

Quoted at random: four records from the list
SMILES | Mtb H37Rv
CCc1cccc(CC)c1NC(=O)CSc1ccc(C)cc1 | i
Cc1ccccc1Nc1nc(N)nc(CN2CCN(C)CC2)n1 | i
COc1cccc(S(=O)(=O)N2CCN(c3ccccc3)CC2)c1 | i
CC1=C(C)CC(C(=O)Nc2cc(Cl)cc(Cl)c2)C(C(=O)O)C1 (stereo not drawn) | i

Rewritten field by field: 2 of the compounds above.
COc1ccc(C)cc1S(=O)(=O)Nc1ccc(C(F)(F)F)cc1
- Mtb H37Rv = i

CC1(C)CC2CC(C)(CN2C(=O)CN2C(=O)c3ccccc3C2=O)C1 (stereo not drawn)
- Mtb H37Rv = i

Further structures.
SMILES | Mtb H37Rv
COC(=O)c1ccc(/C=C(\C#N)C(N)=S)cc1 | i
O=C1CC(SCc2nc3ccccc3[nH]2)C(=O)N1c1ccc(Cl)cc1 (stereo not drawn) | i
Cc1cc(C)cc(NC(=O)c2ccc(C#N)cc2F)c1 | i
Cc1ccc(NC(=S)Nc2ccc(Cl)cc2C)cc1 | i
COc1ccc(C(C)NC(=O)c2ccncc2)cc1OC (stereo not drawn) | i
Cc1ccc(CN2CCN(C(=O)C3CCC3)CC2)cc1 | i
O=C(CN(c1ccc2c(c1)OCCO2)S(=O)(=O)c1ccccc1)NC1CC2CCC1C2 (stereo not drawn) | i
N#Cc1ccc(CSc2nnc(Cc3cccs3)n2Cc2ccco2)cc1 | 1%
CC(C)Cc1nnc(NC(=O)Cc2ccc(Br)cc2)s1 | i
Cc1ccc(-c2nc3ccccc3c(=O)n2-c2ccc(C)c(C)c2)cc1 | i
O=c1cccc2n1CC1CC2CN(c2nc(N3CCCC3)nc(N3CCCC3)n2)C1 (stereo not drawn) | i
COc1cc2c(cc1NC(=S)NC(=O)c1cccnc1)oc1ccccc12 | i
Cc1c(CC(=O)O)c(=O)oc2c(C)c(OCc3ccc4ccccc4c3)ccc12 | 0%
CCc1nc2ccc(Br)cc2c(=O)n1-c1ccccc1C(F)(F)F | 1%
COc1ccc(S(=O)(=O)N(CC(N)=O)c2cc(Cl)ccc2OC)cc1OC | i
COc1ccc(N=C2N=C(N)c3ccccc32)cc1Cl | 35%
COC(=O)c1ccc(OCC(=O)NCc2ccco2)cc1 | 3%
CCc1cc(I)ccc1NC(=O)c1cc(Cl)c(OC)c(Cl)c1 | i
N#CC1=C(N)Oc2n[nH]c(C(F)(F)F)c2C1c1ccccc1 (stereo not drawn) | i
O=C(NC(=S)Nc1ccc(S(=O)(=O)NCCc2ccccc2)cc1)c1sc2ccccc2c1Cl | i
Cc1cc(C)cc(NC(=O)C2CC(=O)n3c(nc4ccccc43)N2)c1 (stereo not drawn) | i
COc1ccccc1CNC(=O)c1ccc(C)cc1C | i
O=C(c1ccco1)N1CCN(C(=S)Nc2ccccc2Cl)CC1 | i
Cc1ccc(NC(=O)C(=O)NCCN2CCN(C(=O)Nc3ccccc3)CC2)cc1 | i
COc1ccc(CC(=O)Nc2ccc(S(=O)(=O)N3CCCC3)cc2)cc1 | i
COc1cccc(N2CCN(C(=O)c3cc(-c4ccncc4)nc4c(C)c(Cl)ccc34)CC2)c1 | 2%
CCn1c(CNC(=O)c2ccccc2F)nnc1SCC(=O)Nc1cccc(OC)c1 | 0%
C=CCNC(=O)C12CC3CC(C1)CC(c1ccc(C)cc1)(C3)C2 | 3%
CC(C)N1CC(C(=O)Nc2ccc(Cl)cc2)CC1=O (stereo not drawn) | i
CCOC(=O)C(=O)Nc1ccc(S(=O)(=O)N2CCCC2)cc1 | i
CCNc1cc(Nc2ccc(Br)cc2)c([N+](=O)[O-])c2nonc12 | i
O=C(NCc1ccccc1)NC(=O)c1ccccc1F | 3%
CC(NC(=O)NC1CCCCC1)c1ccccc1 (stereo not drawn) | i
COc1ccc(C)cc1S(=O)(=O)N1CCN(S(=O)(=O)c2cc(C)ccc2OC)CC1 | i
Cc1cc(Br)ccc1NC(=O)C1CC(=O)N(C2CCCCC2)C1 (stereo not drawn) | i
O=C(c1cccc(S(=O)(=O)N2CCOCC2)c1)N(Cc1ccc(F)cc1)Cc1ccco1 | i
COC(=O)c1ccc(NC(=O)c2cc(Br)ccc2Cl)cc1 | i
CN(c1ccc([N+](=O)[O-])cc1S(=O)(=O)N1CCOCC1)C1CCCCC1 | i
Cc1[nH]c2ccccc2c1C(=O)CSc1nnnn1C | i
COc1ccc(NC(=S)Nc2cccc(Cl)c2C)cc1Cl | 4%
Cc1cc(OCCCN2CC(C)OC(C)C2)ccc1[N+](=O)[O-] (stereo not drawn) | i
O=C(Nc1nnc(C2CC2)s1)c1ccccc1 | i
c1ccc(-c2cnc(SCCN3CCCCC3)nn2)cc1 | i
CCOC(=O)c1ccc(NC(=O)CSc2nnc(Cc3cccc4ccccc34)n2C)cc1 | i
COc1ccc(Cc2nnc(SCC(=O)Nc3ccc(Cl)c(Br)c3)o2)cc1 | 3%

6 consecutive compounds already listed, for reference:
SMILES | Mtb H37Rv
COc1ccc(NC(=S)Nc2cccc(Cl)c2C)cc1Cl | 4%
Cc1cc(OCCCN2CC(C)OC(C)C2)ccc1[N+](=O)[O-] (stereo not drawn) | i
O=C(Nc1nnc(C2CC2)s1)c1ccccc1 | i
c1ccc(-c2cnc(SCCN3CCCCC3)nn2)cc1 | i
CCOC(=O)c1ccc(NC(=O)CSc2nnc(Cc3cccc4ccccc34)n2C)cc1 | i
COc1ccc(Cc2nnc(SCC(=O)Nc3ccc(Cl)c(Br)c3)o2)cc1 | 3%

Continued.
SMILES | Mtb H37Rv
Cc1cc(C)nc(NC(=O)c2csc(C)c2)n1 | i
COc1cccc(OC)c1C(=O)Nc1cccc(C(=O)NC(C)(C)C)c1 | i
CC(=O)c1ccc(NC(=O)CN2C(=O)C3C4CCC(C4)C3C2=O)cc1 (stereo not drawn) | i
Cc1ccccc1OCC(=O)N1CCN(C=O)CC1 | i
CC(=O)c1cccc(NC(=S)N2CCC3(CC2)OCCO3)c1 | i
CCCN(CCC)S(=O)(=O)c1ccc(NC(=O)c2ccccc2C)cc1 | i
O=C(Nc1ccc(Cl)cc1C(F)(F)F)c1cccc(Br)c1 | i
CCN(CC)CCCNC(=O)c1cc2cc([N+](=O)[O-])ccc2oc1=O | i
CC(Oc1ccc(Br)cc1)C(=O)N1CCC(C(N)=O)CC1 (stereo not drawn) | i
c1ccc(OCCCCn2cnc3ccccc32)cc1 | 16µg/mL*
Cc1cccc(OCc2nnc(SCC(=O)NCCc3ccccc3)o2)c1 | 0.46µg/mL*
COc1ccc(C(=O)NC(C)Cc2ccccc2)cc1 (stereo not drawn) | 0%
O=C(Nc1cc(Cl)ccc1Cl)C1CC(=O)N(c2ccccc2)C1 (stereo not drawn) | i
CN1CCN(NC(=S)NC2CC2)CC1 | i
CCn1c(SCC(=O)N(C2CCCCC2)C2CCCCC2)nnc1-c1ccc(OC)cc1 | 1%
O=C(c1ccc(Cl)c(F)c1F)N1CCOCC1 | 2%
O=C(NCc1ccco1)c1cnsn1 | 0%
CCOC(=O)c1c(/N=C/N(C)C)sc2c1CCC2 | i
CCOc1ccccc1Nc1nc(N)nc(CSc2nncn2C)n1 | 4%
CN(C)C(=O)NC(c1ccccc1)c1ccccc1 | i
COc1ccc(/C(N)=N/OC(=O)Oc2ccccc2)cc1 | i
Cc1cc(Br)c(NC(=O)CSc2nnc(CNC(=O)c3ccc(Cl)cc3)n2C)cc1C | i
COc1cc(C(=O)N2CCN(c3ccc([N+](=O)[O-])cc3)CC2)ccc1OCc1ccc(Cl)cc1 | i
CCOC(=O)CCC(=O)NNC(=O)COc1ccc(C(C)C)cc1Br | i
O=S(=O)(Nc1cccc(C(F)(F)F)c1)c1ccc2c(c1)OCCO2 | 0%
Cc1ccc(-c2nc3ccccc3[nH]2)cc1NC(=O)c1ccc2c(c1)OCO2 | i
COC(=O)c1ccc(NC(=O)c2cc(Br)cc(C)c2OC)cc1 | i
CCC(CC)c1nnc(NC(=O)c2cccc(NC(=O)C(C)C)c2)s1 | 0%
CCOc1ccc(C(=O)NC(=S)Nc2ccccc2C(F)(F)F)cc1 | i
